T cruzi inh = blocks replication of Trypanosoma cruzi; T. cruzi beta-gal in NIH3T3, luminescence, 90 h; inhibition, % (concentration not given with the values); AID 1885; 300,000 compounds, 1.4% hits;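 active = mean inhibition across valid replicates above about 55%, limit read from the data; inconclusive = mean below that limit but half or more replicates reach it; inactive = mean below it, under half of replicates reach it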;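 note: signal also drops with host cell toxicity which is not excluded here; 0% = plate median of DMSO wells and 100% = zero luminescence signal; higher percent means less beta-gal luminescence so fewer parasites; stock transfer was 50 nL into about 50 µL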
FGF22 binding = FGF22 (human) thermal shift binding; recombinant FGF22 thermal shift, SYPRO orange fluorescence; percent of sucrose octasulfate shift, DMSO zero; calls only at 9.99 µM; 340,000 compounds, 1.5% hits; AID 651658;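 active = melting point raised past a set limit in the mean and every replicate; inconclusive = no clear call; three in four hits are not shown here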
Target sequence (Q9HCT0 whole entry, looked up): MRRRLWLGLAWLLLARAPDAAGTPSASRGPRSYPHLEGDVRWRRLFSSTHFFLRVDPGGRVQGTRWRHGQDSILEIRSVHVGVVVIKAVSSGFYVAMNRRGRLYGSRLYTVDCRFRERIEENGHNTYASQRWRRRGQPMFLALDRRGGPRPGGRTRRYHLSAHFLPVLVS
Ecoli rRNA inh = selective bacterial rRNA inhibition in E. coli. AID 720706. E. coli WT GFP vs humanized-ribosome RFP mutants, fluorescence, 24 h; active compounds read low; DMSO median 0, no signal -100. GFP signal change (wild-type ribosome), % (no concentration beside the values). 350,000 compounds, 1.6% hits;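 active = significant combined selectivity score with lowered wild-type GFP, culture density cut under 30%, mutant RFP and density less affected; inactive = any of these conditions unmet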; note: one replicate is shown; some compounds called inactive have numbers as strong as hits
MLL AF4-AF9 inh = MLL-AF4/AF9 protein interaction inhibition; inhibition, % at 10 µM; AlphaScreen, biotin-AF4 peptide binding to FLAG-AF9; AID 651704; P42568; 350,000 compounds, 0.47% hits;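 active = every replicate reaching a set inhibition limit, whatever the replicate mean, cut at about 25% in these data; inconclusive = mean inhibition reaches that limit but some replicates miss it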;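 note: 0% = plate neutral control median and 100% = total signal loss; the record names both 10 and 1 µM as test concentration; the first replicate is given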
Target sequence (P42568 whole entry, looked up): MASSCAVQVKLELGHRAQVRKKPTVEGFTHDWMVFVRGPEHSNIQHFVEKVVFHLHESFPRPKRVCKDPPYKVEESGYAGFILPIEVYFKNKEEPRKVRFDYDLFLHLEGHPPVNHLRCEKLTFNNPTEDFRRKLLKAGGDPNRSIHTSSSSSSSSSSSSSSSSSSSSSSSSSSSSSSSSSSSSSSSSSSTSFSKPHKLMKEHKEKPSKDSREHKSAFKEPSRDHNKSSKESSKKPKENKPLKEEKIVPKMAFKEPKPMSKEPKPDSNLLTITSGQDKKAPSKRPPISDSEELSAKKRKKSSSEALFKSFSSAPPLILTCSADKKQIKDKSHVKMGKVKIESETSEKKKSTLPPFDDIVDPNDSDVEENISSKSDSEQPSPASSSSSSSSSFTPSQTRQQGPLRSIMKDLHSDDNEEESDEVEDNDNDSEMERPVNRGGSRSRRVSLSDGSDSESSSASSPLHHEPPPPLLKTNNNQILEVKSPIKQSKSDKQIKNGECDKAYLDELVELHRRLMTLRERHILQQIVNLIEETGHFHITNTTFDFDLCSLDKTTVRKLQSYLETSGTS
RanGTP-Imp inh = disruptors of Ran-importin-beta complex formation – biochemical, FRET, CFP-Ran, YFP-importin-beta, homogeneous, primary screen; cell-free CFP-Ran/YFP-importin-beta FRET ratio; inhibition, % (test concentration not listed); 300,000 compounds, 1.1% hits; AID 2216;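 active = most replicates above 15%; inconclusive = exactly half above 15%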;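 note: 0% = DMSO wells and 100% = Ran loaded with GDP instead of GTP; wells of about 40 µL received 100 nL stock; the first replicate is given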
Beta cell apopt = beta cell apoptosis inhibition | protection from apoptosis, % (concentration not given with the values) | INS-1E cytokine-induced death, ATP luminescence, 48 h; percent of positive-control rescue, neutral wells zero | AID 435005 | 300,000 compounds, 0.8% hits;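 active = all replicates at 75% or more, or half of them and the mean; inconclusive = half reach 75% but not the mean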;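 note: 0% = cytokine-treated negative control wells and 100% = positive control rescue; higher means more ATP so stronger rescue from cytokine killing; wells of about 40 µL received 100 nL stock; the first replicate is given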
ALR inh = human ALR oxidase inhibition via reduced H2O2; 290,000 compounds, 3.8% hits; inhibition, % (test concentration not listed); P55789; purified ALR, DTT oxidation, H2O2 HRP-luminol luminescence;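 active = mean and each replicate at 75% or more; inconclusive = only one of the two met; inactive = neither met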;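 note: stock transfer was 7.5 nL into about 7.5 µL; 0% = neutral wells and 100% = wells with inactivated enzyme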
Target sequence (P55789 whole entry, looked up): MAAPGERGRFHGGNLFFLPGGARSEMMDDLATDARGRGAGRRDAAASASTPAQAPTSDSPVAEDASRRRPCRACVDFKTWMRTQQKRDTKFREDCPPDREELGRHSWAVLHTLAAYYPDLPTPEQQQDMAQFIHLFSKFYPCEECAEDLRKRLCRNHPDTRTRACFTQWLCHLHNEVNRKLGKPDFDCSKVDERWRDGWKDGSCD
Calb FLC = affects C. albicans growth with fluconazole; growth inhibition, % (concentration not given with the values); C. albicans CaCi-2 (fluconazole-resistant clinical isolate) + fluconazole, Alamar Blue growth, 48 h; 300,000 compounds, 0.57% hits;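 active = most replicates above 75%; inconclusive = exactly half above 75%; inactive = most below 75%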;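 note: all wells also contain fluconazole at 8 µg/ml as a sub-toxic cotreatment; 0% = median of DMSO wells and 100% = median of geldanamycin control wells; wells of about 8 µL received 7.5 nL stock; the first replicate is given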
Ecoli rRNA inh OD600 = also measured in Ecoli rRNA inh; calls as there; OD600 change, %; measured here: OD600 growth;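 optical density of the mix in the first replicate; 0 = DMSO median and -100 = no signal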
Ecoli rRNA inh RFP = also measured in Ecoli rRNA inh; calls as there; RFP signal change, %; measured here: RFP humanized mutant strains;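 first replicate; 0 = DMSO median and -100 = no signal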
* marks the source's active call; other numbers are inactive results; i = inactive; ? = inconclusive; / = not tested or not shown. A portion of the library. The share of hits here may be higher or lower than overall.

Second line of a record: Calb FLC	FGF22 binding	Beta cell apopt	T cruzi inh	Ecoli rRNA inh RFP	Ecoli rRNA inh OD600	MLL AF4-AF9 inh	ALR inh	RanGTP-Imp inh	Ecoli rRNA inh
1. CN(C)c1nc(Cl)nc(NCCOc2ccccc2)n1
 : -8	i	-5	6	-3.5	7	-8.7	-16	0.1	8
2. CC(=O)c1ccc(OCCCC(=O)NCC(c2ccco2)N(C)C)cc1 (stereo not drawn)
 : 3	/	-6	3	/	/	/	-1	8.3	/
3. COC(=O)c1c(N2C(=O)[C@H]3[C@@H](C2=O)[C@]2(C(=O)Nc4ccccc42)N2CCC[C@@H]32)sc(C)c1C
 : 11	/	0	-9	/	/	/	0	0.5	/
4. CCC(C)Sc1nc2c(c(=O)[nH]c(=O)n2C)n1Cc1ccc(Cl)cc1 (stereo not drawn)
 : 12	/	12	22	/	/	/	-2	-0.2	/
5. Cc1onc(-c2ccccc2)c1C(=O)Nc1nnc(CC(C)(C)C)s1
 : -2	i	-6	14	-2.9	-21	1.8	4	6.8	-6
6. Cc1ccc(Cl)cc1N1CCN(Cc2nnnn2Cc2ccco2)CC1
 : 4	/	3	19	/	/	/	6	-1.0	/
7. CCOC(=O)N1CCN(C(=S)NC(=O)c2c(-c3c(Cl)cccc3Cl)noc2C)CC1
 : 11	i	11	-6	-2.8	-19	1.5	-2	-3.3	-21
8. CCOC(=O)[C@H]1[C@H]2COc3cc(OC)ccc3[C@@H]2N2C(=O)c3cc(F)c(F)cc3NC(=O)[C@@]12C
 : /	i	-6	/	-17	-18	1.0	/	/	-8
9. COc1ccc(Cl)cc1C(=O)NCCCn1ccnc1
 : 17	i	2	-2	-0.3	7	4.2	-5	2.6	5
10. O=C(c1cnn2c(C(F)(F)F)cc(-c3cccs3)nc12)N1CCCC1
 : -2	i	0	6	-4.0	-11	4.0	/	4.5	-11
11. Cn1cnnc1-c1cccc(NC(=O)c2cc(F)c(F)cc2Cl)c1
 : 12	i	-1	-6	-3.7	-2	2.6	-5	-0.9	4
12. CCCN(C(=O)COC(=O)c1nc2nc(C)cc(C)n2n1)C1CCS(=O)(=O)C1 (stereo not drawn)
 : /	i	-1	/	-2.2	18	-0.2	/	/	8
13. COc1ccc(CNC(=S)Nc2ccccc2)cc1
 : -8	i	1	-3	1.1	-4	1.6	-3	?	9
14. O=C1CN(S(=O)(=O)c2cccc(Cl)c2Cl)c2ccccc2N1
 : 5	i	-6	-4	6.8	-23	-9.8	/	4.3	-10
15. CNc1nc2[nH]c(=O)c3c(c2s1)OC(N)=C(C#N)C3c1ccccc1 (stereo not drawn)
 : -9	/	-8	-17	/	/	/	19	-7.7	/
16. CN(C)C1=NCCN1CCCCc1ccccc1
 : /	i	0	/	-0.4	14	-2.1	/	/	8
17. Cc1ccc(OCC(=O)N(c2ccccn2)C2CCCCC2)c(C)c1
 : -6	/	0	-5	/	/	/	23	3.0	/
18. CCOc1ccc(Nc2nc(Cc3nnc(SCC(=O)NC4CCCCC4)n3C)cs2)cc1
 : 9	/	-2	-4	/	/	/	28	8.6	/
19. COC(=O)c1c([N+](=O)[O-])c(OC)c(OC)c(OC)c1[N+](=O)[O-]
 : -3	i	-3	1	0.4	0	-1.9	1	0.5	1
20. CC(=O)Nc1ccc(SCC(=O)Nc2cc(C)on2)cc1
 : -4	i	-1	-40	-0.6	5	0.0	99*	-0.4	0
21. CCOC(=O)Cn1nc(C)cc1NC(=O)c1cccnc1
 : -8	/	-3	2	1.0	5	-1.2	-4	-0.6	11
22. CC(C)NC(=O)c1cc(-c2ccco2)nn1-c1ccc(Cl)cc1
 : ?	/	/	24	/	/	/	-3	-6.1	/
23. Cc1ccc(S(=O)(=O)N(C)CC(=O)N2CCN(C(=O)c3ccco3)CC2)cc1
 : 2	/	0	-7	/	/	/	-8	0.3	/
24. CCOc1ccc(CNC(=O)C2CCN(C(=O)N3CC(C)Oc4ccccc43)CC2)cc1 (stereo not drawn)
 : 2	i	6	4	0.3	2	0.6	-3	4.7	2
25. COCCn1c(=O)[nH]c2cc(C(=O)NCCN3CCN(c4ccccc4)CC3)ccc2c1=O
 : 5	/	2	-5	/	/	/	45	-1.2	/
26. O=C(c1ccc(=O)oc1)N1CCN(c2ccc(F)cc2)CC1
 : 1	/	-5	-14	/	/	/	/	-2.7	/
27. O=C(COC(=O)Cc1ccccc1F)Nc1ccc(F)cc1F
 : -9	i	-3	0	4.6	1	-0.8	54	-1.0	-8
28. Cc1ccc(NC(=O)CSc2nc3ccccc3c3nc(CCn4cncc4C)nn23)c(C)c1
 : 2	i	8	20	3.3	9	-2.7	/	?	11
29. C=CCN(c1ccccc1OC)S(=O)(=O)c1cccc(C(=O)Nc2nnc(C3CC3)s2)c1
 : /	i	-1	/	-2.0	7	-1.5	-5	/	3
30. CCN(CC)c1ccc(-c2nc3cnccc3n2C)cc1
 : 34	/	20	15	/	/	/	/	0.2	/
31. COc1ccc(-c2csc(NC(=O)C3CCCCN3S(=O)(=O)c3ccccc3)n2)cc1 (stereo not drawn)
 : 2	/	8	53	/	/	/	-1	4.0	/
32. COCCCN1C(=O)N(c2ccc(F)cc2)C(=O)C1CC(=O)Nc1ccccc1 (stereo not drawn)
 : 5	i	/	-7	1.3	4	-4.5	-5	-3.2	10
33. CC1CCCC(C)N1C(=O)CSc1nnnn1C1CCCC1 (stereo not drawn)
 : -3	i	/	5	0.1	0	-3.1	/	1.5	-4
34. Cc1nc(SCc2nc3ccccc3[nH]2)c2oc3cc([N+](=O)[O-])ccc3c2n1
 : /	i	-8	/	-9.4	-6	/	10	/	0
35. O=C(COc1ccccc1)Nc1cccc(-c2nc3cc4ccccc4cc3[nH]2)c1
 : 109*	/	33	20	/	/	/	10	-1.0	/
36. C=CCSc1nnc2n(-c3ccccc3OC)c(=O)c3c4c(sc3n12)CCC4
 : 10	/	13	-1	/	/	/	2	4.1	/
37. O=C(NCc1ccccc1)NC1CCS(=O)(=O)C1 (stereo not drawn)
 : -11	i	1	-5	-1.6	-5	0.5	9	4.7	0
38. O=C(N/N=C/c1coc2ccccc2c1=O)c1ccccc1Br
 : 11	/	-9	-8	/	/	/	51	-0.8	/
39. Cc1nc(N2CCOCC2)c2cc(-c3ccccc3)sc2n1
 : 9	/	7	16	/	/	/	2	-2.2	/
40. COc1cc(C(=O)NCCNc2nc3cc(C)ccc3cc2C#N)cc(OC)c1OC
 : -7	i	2	5	-0.1	-1	-6.5	/	17*	2
41. CC(C)c1ccc(/C=C2\NC(=O)NC2=O)cc1
 : 2	i	4	-26	1.2	3	1.1	3	-1.8	5
42. Cc1nn(C)c(C(=O)N/N=C/c2cccnc2)c1Br
 : -4	i	-2	-9	1.3	-1	-2.8	-6	6.6	4
43. O=C(NC(=S)Nc1ccc(N2CCCCC2)c(Cl)c1)c1cccs1
 : 1	/	9	11	/	/	/	-3	-5.5	/
44. Cc1cnc(NC(=O)CSc2nnc3ncccn23)s1
 : -6	i	-2	2	-1.8	10	0.6	-5	1.0	5
45. COc1ccc(OC)c(/C=N/n2c(C)nc3ccccc3c2=O)c1
 : 8	i	2	4	-1.4	12	/	-5	1.6	14
46. O=C(c1ccc(Cl)c([N+](=O)[O-])c1)N(c1ccccn1)c1ccccn1
 : 0	i	2	6	-14	-2	-1.2	-6	-1.5	13
47. Cc1nn(C)c(C)c1NC(=O)C12CC3CC(CC(C3)C1)C2
 : ?	/	-2	-17	/	/	/	7	2.5	/
48. COc1ccc(-c2cc(C3CC3)nc3sc(C#N)c(N)c23)cc1
 : 17	/	5	42	/	/	/	/	3.7	/
49. O=C(COC(=O)c1ccc2c(c1)OCCO2)NCCc1ccc(F)cc1
 : /	i	-4	/	-0.2	5	1.1	0	/	2
50. Cc1c(C(=O)N2CCN(C(=O)c3ccco3)CC2)oc2c(Cl)cccc12
 : 6	i	1	2	-4.1	-28	-0.3	4	-1.7	-24
51. Cc1ccc(Cn2c(=O)sc3ccccc3c2=O)cc1
 : -16	/	-1	17	/	/	/	-6	-1.2	/
52. COC(=O)c1ccc(S(=O)(=O)N2CCC(C(N)=O)CC2)n1C
 : -14	i	-4	-12	-0.6	8	/	/	-0.5	2
53. CS(=O)(=O)c1nc(S(=O)(=O)c2ccc(Cl)cc2)c(NCc2ccccn2)s1
 : -2	i	-11	10	-1.2	2	0.3	6	1.3	6
54. O=C(O)/C=C\C(=O)Nc1ccc(N2CCN(c3cccc(Cl)c3)CC2)cc1
 : 11	/	-2	-7	39	0	5.9	99*	2.3	-1
55. COc1cc(NC(=O)Cn2cnc3ccccc3c2=O)c(OC)cc1Cl
 : -3	i	-10	21	1.0	3	-3.0	-1	-2.0	11
56. Cc1cccc(C(=O)NNC(=O)CSc2nnc(C(C)C)n2C)c1
 : -8	i	1	-11	-3.4	3	-0.1	/	?	4
57. Cc1nnc(NC(=O)CN2CCN(Cc3ccccc3Cl)CC2)s1
 : -6	i	-1	20	0.4	7	6.0	-16	3.8	10

Arranged by length of the SMILES (low to high): part of the list above
Second line of a record: Calb FLC	FGF22 binding	Beta cell apopt	T cruzi inh	Ecoli rRNA inh RFP	Ecoli rRNA inh OD600	MLL AF4-AF9 inh	ALR inh	RanGTP-Imp inh	Ecoli rRNA inh
9. COc1ccc(Cl)cc1C(=O)NCCCn1ccnc1
 : 17	i	2	-2	-0.3	7	4.2	-5	2.6	5
2. CC(=O)c1ccc(OCCCC(=O)NCC(c2ccco2)N(C)C)cc1 (stereo not drawn)
 : 3	/	-6	3	/	/	/	-1	8.3	/
7. CCOC(=O)N1CCN(C(=S)NC(=O)c2c(-c3c(Cl)cccc3Cl)noc2C)CC1
 : 11	i	11	-6	-2.8	-19	1.5	-2	-3.3	-21

Assay outcomes as filed in PubChem BioAssay.
